Screens from PubChem.
UUG fidelity: alters start codon recognition fidelity in yeast | S. cerevisiae UUG-firefly luciferase reporter, luminescence/redox ratio | 350,000 tested, 0.13% active | activity score, % at 18.7 µM;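 active means replicate mean at a twofold rise or more, about +100% in these data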;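 further: firefly luciferase made from a UUG start codon reports start codon fidelity; reporter light over untreated wells divided by growth signal over untreated wells; some hits fall short of that in this replicate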
eIF4H inh: inhibitors of RNA binding by human eIF4H | Q15056 | eIF4H fluorescence polarization binding assay | inhibition, % at 35 µM | 290,000 tested, 0.94% active | AID 2012;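 active means 50% or more with normal probe brightness, or confirmed in later tests; inconclusive means above 50% with abnormal brightness, or retests that disagree; inactive means below 50% or failed in later tests; about a fifth of its hits are not listed in these tables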;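 further: calls also rest on retests at 20 µM and on dose response follow-up; 0% = protein and probe with vehicle and 100% = probe without protein; strong numbers were not always called active; many hits fall short of the cut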
Rce1 inh: yeast Ras-converting enzyme inhibition | AID 2563 | yeast membranes, quenched prenylated peptide cleavage fluorescence | 290,000 tested, 0.27% active | calls only;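 active means fall in fluorescence gain of 50% or more versus controls, with final raw signal at or below 3038400; inconclusive means same 50% fall but final raw signal above 3038400; inactive means fall in fluorescence gain under 50%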;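 further: plate controls were neutral control wells for no effect and wells lacking membranes for full effect; tested at 10 µM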
Target sequence (Q03530 whole entry, looked up): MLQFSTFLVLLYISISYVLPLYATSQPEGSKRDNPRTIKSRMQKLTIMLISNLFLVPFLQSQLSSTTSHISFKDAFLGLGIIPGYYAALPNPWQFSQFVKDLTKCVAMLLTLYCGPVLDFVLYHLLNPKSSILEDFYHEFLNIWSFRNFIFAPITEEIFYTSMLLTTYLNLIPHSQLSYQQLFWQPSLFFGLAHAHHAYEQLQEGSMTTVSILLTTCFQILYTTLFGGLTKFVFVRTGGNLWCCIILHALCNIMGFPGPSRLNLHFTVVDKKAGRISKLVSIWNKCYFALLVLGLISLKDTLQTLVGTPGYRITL
HIV Env fusion: HIV envelope-mediated fusion inhibition. inhibition, % at 12.3 µM. 360,000 tested, 1.1% active. HeLa-JRFL Env/CEM21 cell fusion, luciferase. AID 651610;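 active means mean replicate inhibition score of at least 50 and every replicate individually at or above 50; inconclusive means only one of the two criteria met; inactive means mean below 50 and not all replicates reaching 50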;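 further: 0% = plate neutral controls and 100% = maraviroc near 300 nM; one replicate is shown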
CSC inhib: blocks cancer stem cells; cancer stem cell-like cells viability, luminescence; 300,000 tested, 1.1% active; inhibition, % at 7.5 µM; AID 2717;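 active means mean at 75% or more and at least half the replicates too; inconclusive means mean and replicates disagree; tested in HMLE shEcad cells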;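 further: 0% = median of negative and 100% = median of positive control wells; the first replicate is given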
PABP FP inh: blocks human PABP binding to poly(A) RNA | inhibition, % at 35 µM | AID 2014 | fluorescence polarization | 290,000 tested, 1% active | P11940;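 active means 50% or more with normal probe brightness, or confirmed in later tests; inconclusive means above 50% with abnormal brightness, or retests that disagree; inactive means below 50% or failed in later tests; about a fifth of its hits are not listed in these tables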;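 further: calls also rest on retests at 20 µM and on dose response follow-up; controls were probe without protein and protein plus probe with vehicle; some compounds called inactive have numbers as strong as hits; many hits fall short of the cut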
MT1-MMP act inh: blocks activation of human MT1-MMP | P50281 | HT1080 RFP-PRO-GFP cells, GFP/RFP ratio fluorescence, overnight; percent of plate control window, DMSO zero | GFP/RFP ratio change, % at 20 µM | 360,000 tested, 0.061% active | AID 651647;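 active means GFP/RFP ratio change of at least 30% with cell ATP level not reduced by more than half and red fluorescence within 50% of control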; further: strong numbers were not always called active
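Material – HT1080 RFP-PRO-GFP cells · Control set – DMSO wells and RFP-L50D-GFP cells · Incubation – overnight cell settling, then overnight compound exposure, 37 °C, 5% CO2 · Compound dosing – single-point 20 µM compound, 1% DMSO · Read-out – GFP/RFP fluorescence ratio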
eIF4H inh retest: recorded beside eIF4H inh, whose call it bears; inhibition, %; compound at 20 µM; confirmation average;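 mean of two retest wells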
PABP FP inh retest: further read-out of PABP FP inh, marked with its call; inhibition, %; compound at 20 µM; confirmation repeats;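 mean of two retest wells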
MT1-MMP act inh RFP: second read-out of MT1-MMP act inh, no call of its own (marks repeat the call); RFP signal change, %; measured here: RFP expression control read;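 0 = vehicle wells; hits needed this value within 50% of zero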
The depositor's hits bear a star; i = inactive; ? = inconclusive; . = not tested or not shown; & = joins results of further samples; [ ] = another dose, or the depositor's remark.

Start of the data: the first three compounds as a preview:
SMILES | UUG fidelity | eIF4H inh | Rce1 inh | HIV Env fusion | CSC inhib | PABP FP inh | MT1-MMP act inh | MT1-MMP act inh RFP | others
C1=C(c2cc3ccccc3cn2)CCCC1 | -13 | . | . | -119 | -6 | . | -2 | -4
CC1=C(C#N)C(=O)NC(=O)/C1=C/c1ccc(-c2ccc(S(N)(=O)=O)cc2)o1 | . | ? | i | 13 | -9 | -2 | -14 | 2
Cc1ccccc1C(=O)Nc1ccnn1C1CCN(Cc2cnn(C(C)C)c2)CC1 | -22 | 2 | i | -11 | 4 | -4 | 2 | 8

Main list, from the first entry:
SMILES | UUG fidelity | eIF4H inh | Rce1 inh | HIV Env fusion | CSC inhib | PABP FP inh | MT1-MMP act inh | MT1-MMP act inh RFP | others
C1=C(c2cc3ccccc3cn2)CCCC1 | -13 | . | . | -119 | -6 | . | -2 | -4
CC1=C(C#N)C(=O)NC(=O)/C1=C/c1ccc(-c2ccc(S(N)(=O)=O)cc2)o1 | . | ? | i | 13 | -9 | -2 | -14 | 2
Cc1ccccc1C(=O)Nc1ccnn1C1CCN(Cc2cnn(C(C)C)c2)CC1 | -22 | 2 | i | -11 | 4 | -4 | 2 | 8
CCN(CC)CCCNC(=O)c1ccc2c(SCC(=O)O)c3c(nc2c1)CCC3 | . | 8 | i | . | -9 | -9 | . | .
COc1ccc(NC(=S)NNC(=O)c2nnn(-c3ccccc3)c2C)cc1 | . | 15 | i | . | -10 | 2 | 1 | 7
CN(C)CCNC(=O)c1ccc2c(c1)N(Cc1ccc(F)cc1)CCS2 | -23 | -3 | i | 6 | 56 | 7 | -4 | -1
Cc1c(C(=O)NC(C)C)c(-c2ccccc2)nn1-c1ccccc1 | -19 | 0 | i | -1 | 7 | -2 | 4 | 10
O=C(NCc1ccccc1)C(c1ccc(F)cc1)N(C(=O)c1csnn1)c1ccccc1 (stereo not drawn) | -4 | 12 | i | 3 | 10 | 4 | 0 | 1
CCOc1cc(C)c(C(C)C)cc1S(=O)(=O)N1CCOCC1 | 12 | 10 | i | . | -9 | -3 | 2 | -2
Nc1ccc2c(c1)C(=O)N(CCCC(=O)O)C2=O | -11 | 12 | i | . | -3 | 7 | 5 | 6
O=C(CNC(=O)c1cccs1)OCc1ccc(Br)cc1 | -9 | -5 | i | . | -10 | -8 | -2 | 2
CN1CCN(CCCNC(=O)C2CCN(c3nnc(-n4cccc4)s3)CC2)CC1 | -9 | 6 | i | . | 9 | 10 | 0 | 5
Cc1ccc(C(=O)Nc2ccc(C(=O)/C=C/c3cccs3)cc2)cc1 | -1 | -10 | i | -39 | 21 | -4 | 3 | -1
Cc1cc(C=O)c(O)cc1O | -8 | 11 | i | 17 | 9 | 17 | 3 | 1
CCOC(=O)Cn1cc(/C=N/N2C(=O)C3C4C=CC(C4)C3C2=O)c2ccccc21 (stereo not drawn) | . | 63 | i | 3 | -1 | 4 | 1 | -4 | eIF4H inh retest=-8;PABP FP inh retest=6
CCOC(=O)N1CCC(NC(=O)CC2C(=O)NCCN2Cc2ccccc2)CC1 (stereo not drawn) | 6 | 8 | . | 3 | -1 | 2 | -3 | 5
CC12CCC(=O)N1C(C(=O)OCc1c(Cl)cccc1Cl)CS2 (stereo not drawn) | 6 | 7 | i | 14 | -2 | 3 | 0 | -3
CCc1noc(C)c1C(=O)Nc1ccc(S(=O)(=O)N2CCCC(C)C2)cc1 (stereo not drawn) | 3 | . | i | -2 | 6 | . | -5 | -3
CC(=O)c1ccc2c(c1)C1C=CCC1C(c1ccncc1)N2 (stereo not drawn) | -1 | 0 | i | . | 2 | 7 | 9 | 9
CN(Cc1ccccc1)C(=O)c1nc2ccccn2c1CNCCn1cccn1 | -4 | -3 | i | -23 | -10 | 0 | 1 | 2
CCN(CC)S(=O)(=O)c1cc(NC(=O)CN2C(=O)NC3(CCCc4ccccc43)C2=O)ccc1C (stereo not drawn) | . | 1 | i | -60 | 5 | -1 | 2 | -5
Cc1sc(NC(=O)c2ccccc2)c(C(=O)c2ccccc2)c1C | -3 | 3 | i | 3 | -5 | -6 | -2 | 3
CSc1ccccc1C(=O)NCCS(=O)(=O)N1CCN(c2ccc(F)cc2)CC1 | 9 | . | i | -6 | -4 | . | -2 | -5
O=C(CN1C(=O)S/C(=C\c2ccccc2F)C1=O)NC1CCS(=O)(=O)C1 (stereo not drawn) | -14 | -23 | i | -8 | -30 | 8 | 1 | 2
Cc1cc(C)c(C)c(S(=O)(=O)NCC(=O)N2CCCC2)c1C | -6 | -4 | . | 13 | -6 | 9 | 1 | 1

(listing goes on)
SMILES | UUG fidelity | eIF4H inh | Rce1 inh | HIV Env fusion | CSC inhib | PABP FP inh | MT1-MMP act inh | MT1-MMP act inh RFP | others
Cc1cccn2c(=O)c(/C=C(\C#N)C(=O)NCc3ccco3)c(N3CCCC(C)C3)nc12 (stereo not drawn) | -2 | 5 | i | 19 | -10 | -11 | -3 | -5
CCCCn1c(N)c(N(CC(C)C)C(=O)C2CC(=O)N(Cc3ccco3)C2)c(=O)[nH]c1=O (stereo not drawn) | -13 | 3 | i | 15 | -13 | 0 | 1 | 2
Cc1ccccc1-c1nnn(CC(=O)N2CCN(C(=O)c3ccco3)CC2)n1 | . | . | i | -5 | 5 | . | -2 | 5
COc1cc(-c2cc(C(=O)Nc3nc4ccccc4s3)c3ccccc3n2)cc(OC)c1OC | . | -6 | i | -6 | 0 | 51 | -9 | -13 | eIF4H inh retest=2;PABP FP inh retest=-1
CN1OCC(S(=O)(=O)c2ccccc2)C1c1ccccc1 (stereo not drawn) | . | -1 | i | -5 | -2 | -4 | 2 | 1
COc1ccc(NC(=O)CCNS(=O)(=O)c2ccc3[nH]c(=O)oc3c2)cc1Cl | -18 | 8 | i | -6 | -6 | -3 | 4 | 7
Cc1c(C(=O)NCc2ccccc2F)oc2ccccc12 | -5 | 2 | i | -16 | 11 | -2 | 1 | 1
C(=Nc1ccccc1)c1ccc[nH]1 | -20 | . | . | -13 | . | . | -4 | 5
C[C@@H]1CN([C@@H](C)CO)C(=O)c2cc(NS(C)(=O)=O)ccc2O[C@@H]1CN(C)S(=O)(=O)c1ccccc1 | -6&-1 | . | . | 13[16.7 µM] | . | . | 0 | 5
O=C(Cc1cccc2ccccc12)Nc1cc(C(=O)O)cc(C(=O)O)c1 | -7 | -9 | i | -5 | -15 | -4 | -5 | 0
COc1ccc(N2CCN(S(=O)(=O)CCNC(=O)/C=C/c3ccccc3)CC2)cc1 | . | . | i | . | -1 | . | 4 | -1
CC(C)Nc1nc(SC(C)C(=O)Nc2ccccc2)nc(N(C)C)n1 (stereo not drawn) | -5 | -13 | i | 7 | -7 | 10 | -1 | -4
C=C(C)[C@H]1CC=C(C)/C(=N/NC(=O)CNc2ccccc2OC)C1 | 2 | 0 | i | . | -6 | 5 | 0 | 0
O=C(CC(c1ccccc1)c1cc(Cl)ccc1O)NCCCN1CCOCC1 (stereo not drawn) | -4 | 8 | i | -18 | . | 4 | 3 | 2
O=C1OCCC1Sc1nc(-c2ccccc2)cs1 (stereo not drawn) | -3 | -5 | i | . | -15 | 0 | 0 | 6
N#Cc1c(Nc2ccccc2)sc(C(=O)c2ccc(F)cc2)c1N | . | 2 | i | 24 | 42 | -4 | 4 | -1
O=S(=O)(c1ccc(OCC(O)CN2CCCCC2)cc1)N1CCOCC1 (stereo not drawn) | -7 | 2 | i | -12 | -14 | -2 | 2 | 5
CCCCN(C=O)c1c(CC)nc2ccc(C(=O)N3CCCCC3)cn12 | -7 | . | . | -8 | . | . | 3 | 7
O=C(c1ccco1)N1CCN(c2ncnc3scc(-c4ccccc4)c23)CC1 | 5 | 1 | i | 8 | . | 10 | -6 | -11
Cc1cc(C)c(S(=O)(=O)N2CCN(C(=O)c3cc(=O)[nH]c4ccccc34)CC2)c(C)c1 | -9 | . | . | . | -9 | . | -4 | -3
O=C(CSCc1ccc(F)cc1)NCc1ccco1 | . | -3 | i | -44 | -10 | 18 | 4 | 0
C/C(=N/NC(=O)c1ccc(C)s1)c1cccc(NC(=O)c2ccoc2C)c1 | -6 | 2 | . | -32 | 18 | 0 | 0 | -1
CCC(C(=O)NCCC(C)C)N(Cc1ccccc1Cl)C(=O)c1snc(C(N)=O)c1N (stereo not drawn) | -5 | -7 | i | 15 | 0 | 11 | -3 | -7
CC1CCC(NC(=O)CCS(=O)(=O)c2ccc3c(c2)NC(=O)C(C)S3)CC1 (stereo not drawn) | 32 | -7 | i | -3 | 1 | 2 | 1 | -4
O=C(Nc1ccc(S(=O)(=O)Nc2ccccc2)cc1)c1ccc(CN2CCOCC2)cc1 | . | -2 | i | 45 | 17 | -16 | -12 | -27

The results go on:
SMILES | UUG fidelity | eIF4H inh | Rce1 inh | HIV Env fusion | CSC inhib | PABP FP inh | MT1-MMP act inh | MT1-MMP act inh RFP | others
O=C(O)CSCC(=O)N1CCc2c([nH]c3ccccc23)C1C(F)(F)F (stereo not drawn) | -13 | -6 | i | -6 | . | -12 | 6 | 2
O=S(=O)(c1ccc(F)cc1)N1CCN(S(=O)(=O)c2cccs2)CC1 | -9 | -1 | i | 8 | 3 | 0 | -2 | 0
CCOc1ccc(C(C)=O)cc1N1C(=O)C2C3C=CC(C3=C(C)C)C2C1=O (stereo not drawn) | . | 4 | i | . | -2 | 2 | 0 | 1
COc1cc(Cl)ccc1OCc1cc(C(=O)N(C)CCc2cnn(C)c2)no1 | -4 | -2 | i | -58 | 5 | -1 | -2 | -1
CCN(C(=O)COC(=O)c1cc(C)n(-c2ccc(F)cc2)c1C)C1CCS(=O)(=O)C1 (stereo not drawn) | 12 | 4 | . | . | . | -9 | 2 | 1
Cc1cccc(C)c1NC(=O)CNc1ccccc1 | 4 | -5 | i | -51 | -6 | -6 | 2 | 2
CCCNC(=O)CCn1cc(-c2ccc(OC)cc2)nc1-c1ccncc1 | -9 | 2 | i | -45 | -4 | -3 | 3 | 4
CCOc1ccc(-c2nnc(SCC(=O)O)n2Cc2ccccc2)cc1 | 0 | -2 | i | 1 | -13 | -1 | 0 | 2
O=C(NNC(=O)C12CC3CC(CC(C3)C1)C2)c1csc(N2CCOCC2)n1 | 15 | . | i | 3 | 1 | . | 0 | 3
CCN(CC(=O)Nc1ccc(OC)cc1)C(=O)Cc1ccsc1 | -4 | . | . | . | -2 | . | -2 | 2
COc1ccc(NC(=O)C2(C)Cc3c(-c4cccc(NC(C)=O)c4)ccnc3O2)cn1 (stereo not drawn) | 3 | . | . | -115 | . | . | 13 | 0
C#CCSc1nc(=O)c2cccnc2n1-c1ccc(C)cc1 | -8 | 6 | i | -4 | -13 | -3 | 3 | 1
Cc1ccc(S(=O)(=O)N2[C@@H](c3ccc(Br)cc3)C(C(=O)O)=CC[C@H]2c2ccc(Cl)cc2)cc1 | 17 | . | . | -3 | . | . | -4 | 1
Cc1ccc(C(N)=O)cc1S(=O)(=O)Nc1cccc(C)c1C | -14 | -2 | i | 2 | . | -4 | 8 | 8
Cc1c(Cl)cccc1NC(=O)CNC(=O)c1ccc(F)cc1 | -14 | -10 | i | . | 21 | -4 | 3 | 4
COc1ccc(-n2c(CN3CCN(Cc4ccccc4)CC3)nc3ccc([N+](=O)[O-])cc3c2=O)c(OC)c1 | -13 | -4 | i | 10 | -12 | 24 | -4 | 0
Cc1ccc(-c2c3c(=O)n(C)c(=O)n(C)c3cn2N2CCOCC2)cc1 | 3 | -1 | i | . | 14 | -2 | 1 | 0

The list is partial, so the mix of outcomes need not match the whole.
